ugtP null kill = compounds lethal to S. aureus RN4220 ugtP deletion mutant | OD600 growth, 16 h; some inactives read as strong as hits | growth inhibition, % (concentration not given with the values) | hit rate 0.54% among 330,000 | AID 1259309;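 active = z-score under -3 and OD600 up to 0.15 on both plates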;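 also: plate controls were untreated wells for no effect and antibiotic for full effect; wells of about 80 µL received 100 nL stock; the first replicate is given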
Bead autofluor = compound fluorescence in toxin protease inhibitor counterscreen; hit rate 3.1% among 360,000; fluorescence intensity (concentration not given with the values); compound autofluorescence counterscreen, microsphere flow cytometry; hits give high values;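 active = at least 3 SD above the mean of all compounds, about 16000 in these data; inconclusive = too few beads counted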;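 also: 100 nL of 1 mM stock went into each well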
PrP UTR inh = inhibition of PrP 5' UTR reporter expression. cell-based PrP 5' UTR mRNA reporter, plate reader. inhibition, % (no concentration beside the values). hit rate 0.35% among 340,000. AID 488862;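 active = every replicate at 50% or more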;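 also: 0 = median of the neutral control wells; tested in H4 reporter cells; numbers are from one replicate; inactives centre near -14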
Sa RN4220 lethal = kills Staphylococcus aureus RN4220. hit rate 0.33% among 330,000. S. aureus RN4220 growth, OD600, 16 h. AID 1259311. inhibition, % (concentration not given with the values);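 active = z-score of -3 or lower and OD600 up to 0.18 on both plates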;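 also: plate controls were untreated cells for no effect and reference antibiotic for full effect; stock transfer was 100 nL into about 80 µL; one replicate is shown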
BJeLR lethal = kills HRASV12-expressing BJeLR cells. inhibition, % (test concentration not listed). AID 1554. BJeLR (HRASV12) viability, CellTiter-Glo ATP luminescence, 48 h; reference of the scale not given here. hit rate 0.17% among 300,000;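 active = replicate mean above 50%; inconclusive = above 50% but judged a plate artefact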;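 also: 50 nL library stock added to about 25 µL; numbers are from one replicate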
Mtb hypoxia inh = reduces hypoxia-regulated biosensor signal in M. tuberculosis; M. tuberculosis hypoxia-regulated fluorescent reporter, fluorescence; fluorescence inhibition, % (test concentration not listed); hit rate 0.1% among 300,000; AID 1159583;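 active = 35 to 45% if threefold the growth effect, above 45% if 1.5-fold the growth effect; inactive = the rest, general growth blockers included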;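 also: wells of about 50 µL received 100 nL stock; 0% = vehicle wells and 100% = reference inhibitor wells; whole bacteria with a GFP reporter of the hypoxia response; strong numbers were not always called active; many hits fall short of the cut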
Mtb hypoxia inh growth = further read-out of Mtb hypoxia inh, marked with its call; growth inhibition, %; measured here: M. tuberculosis growth (absorbance);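 0% = vehicle and 100% = reference antibiotic; read after six days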
* marks the source's active call; other numbers are inactive results; ? = inconclusive; · = no result given.

SMILES	ugtP null kill	Bead autofluor	PrP UTR inh	Sa RN4220 lethal	BJeLR lethal	Mtb hypoxia inh	Mtb hypoxia inh growth
CC(NC(=O)OCc1ccccc1)C(=O)NCC(=O)NC(Cc1ccc(OC(C)(C)C)cc1)C(=O)OC(C)(C)C (configuration not stated)	·	8362	-16	·	-10	·	·
COc1ccc(N2CCN(C(=O)NC(=O)c3ccccc3)CC2)cc1	-1	4130	2	2.1	-5	-6	-3
CN1C(C(=O)Nc2ccc(OC(F)(F)F)cc2)=CC(c2ccco2)=NS1(=O)=O	-1	5683	-15	3.1	2	2	-1
Cc1ccc(C(=O)OCc2ccc3c(c2)OCO3)cc1S(=O)(=O)N1CCCCC1	48	10160	-34	5.1	-7	12	12
Cc1cc(C)cc(NC(=O)CSc2nc3nc(C)cc(C)c3c(=O)[nH]2)c1	7	?	·	2.8	·	7	7
CCOC(=O)c1cn2nc(Oc3cccc(C(F)(F)F)c3)ccc2n1	-2	·	-6	5.2	-2	0	0
CN=c1scc(-c2ccccc2F)n1/N=C/c1ccc(O)c(O)c1O	·	3546	40	·	10	·	·
O=C(O)Cc1c(-c2ccccc2)c2cc(Br)ccc2[nH]c1=O	-1	6345	-19	1.5	1	4	-4
Cc1ccnc(NS(=O)(=O)c2ccc(NC(=O)C34CC5CC(C)(CC(C)(C5)C3)C4)cc2)n1	-4	7210	-23	12	3	-3	7
O=C(CN(C(=O)c1csnn1)c1ccccc1Cl)NC1CCCC1	-8	5761	-31	5.3	-3	14	0
CCOC(=O)N1CCN(C(=O)C2CCN(Cc3nc(-c4ccccc4C)oc3C)CC2)CC1	-9	6710	-23	4.6	4	·	·
COc1ccc(C(F)(F)F)cc1N/C=C\c1nnnn1-c1ccccc1	-7	3836	-15	1.9	-7	13	10
CCOC(=O)N1CCC(N(CCCOC)C(=O)Nc2cccc(OC)c2)CC1	3	8730	-22	2.5	12	1	6
CCc1ccc(Nc2nnc(SCC(=O)N(C)CC(=O)Nc3ccccc3CC)s2)cc1	-10	2237	-3	5.1	2	1	3
COc1cccc(NC(=O)CSc2ccc(-c3ccco3)nn2)c1	-7	5709	-36	4.4	-11	8	9
CCOc1ccc(S(=O)(=O)N(C)CCO)cc1-c1nc2c(C(C)(C)C)nn(C)c2c(=O)[nH]1	16	5928	-17	-4.9	-1	3	2
COC(=O)[C@H](C)NC(=O)Nc1ccc(OC(F)(F)F)cc1	-4	3782	-11	-13	5	8	10
O=C1[C@@H]2CSCN2C(=O)CN1Cc1c(F)cccc1Cl	7	3733	-31	3.5	5	13	10
CCOC(=O)CSc1nc2ccccc2c(=O)n1C1CCCC1	27	4385	-13	5.3	9	12	3
Cc1cccc(NC(=O)c2ccc(S(=O)(=O)C(F)F)cc2)c1C	2	2428	-38	0.4	1	6	7
CC1(C)NC(=O)N(CCCCOc2ccc3ccccc3c2Cl)C1=O	2	24165*	-30	5.0	-2	3	4
CCOC(=O)CC(NS(=O)(=O)c1ccc2[nH]c(=O)sc2c1)c1ccc(C)cc1 (configuration not stated)	5	3667	-2	3.5	10	-1	8
COc1ccc2[nH]cc(CCNS(=O)(=O)c3ccc(C)cc3)c2c1	1	4758	-20	-2.8	13	-5	8
O=C(COC(=O)c1cc(=O)[nH]c2ccccc12)NCc1ccccc1Cl	3	3614	-16	2.4	·	2	16
COC(=O)CSC1=C(C#N)C(c2ccc(F)cc2)CC(=O)N1 (configuration not stated)	-7	5440	-29	7.7	-7	-4	0

Fetched by structure from the entries so far, 7 records:
SMILES	ugtP null kill	Bead autofluor	PrP UTR inh	Sa RN4220 lethal	BJeLR lethal	Mtb hypoxia inh	Mtb hypoxia inh growth
CC(NC(=O)OCc1ccccc1)C(=O)NCC(=O)NC(Cc1ccc(OC(C)(C)C)cc1)C(=O)OC(C)(C)C (configuration not stated)	·	8362	-16	·	-10	·	·
CCc1ccc(Nc2nnc(SCC(=O)N(C)CC(=O)Nc3ccccc3CC)s2)cc1	-10	2237	-3	5.1	2	1	3
O=C1[C@@H]2CSCN2C(=O)CN1Cc1c(F)cccc1Cl	7	3733	-31	3.5	5	13	10
COc1cccc(NC(=O)CSc2ccc(-c3ccco3)nn2)c1	-7	5709	-36	4.4	-11	8	9
Cc1cc(C)cc(NC(=O)CSc2nc3nc(C)cc(C)c3c(=O)[nH]2)c1	7	?	·	2.8	·	7	7
CCOC(=O)N1CCN(C(=O)C2CCN(Cc3nc(-c4ccccc4C)oc3C)CC2)CC1	-9	6710	-23	4.6	4	·	·
CCOC(=O)CSc1nc2ccccc2c(=O)n1C1CCCC1	27	4385	-13	5.3	9	12	3

More compounds.
SMILES	ugtP null kill	Bead autofluor	PrP UTR inh	Sa RN4220 lethal	BJeLR lethal	Mtb hypoxia inh	Mtb hypoxia inh growth
NC(=NOC(=O)c1ccc(Br)cc1)c1cccc([N+](=O)[O-])c1	0	·	·	2.4	·	2	7
CC(=O)Nc1ccc(C(O)(C(F)(F)F)C(F)(F)F)cc1	-1	2657	-36	3.6	1	5	4
CC(=O)ON1C(C)(C)CC(OC(=O)c2ccccc2)CC1(C)C	3	2947	4	2.3	6	·	·
CN(NS(=O)(=O)c1ccc(F)cc1)c1ncc(C(F)(F)F)cc1Cl	-6	4395	-8	0.9	-2	-6	4
O=C(N/N=C(\c1ccccc1)c1cccnc1)C(O)(c1ccccc1)c1ccccc1	·	3776	-16	·	1	·	·
COC(=O)C1=C(c2ccc(OCc3ccccc3)cc2)CC2CCC1N2C(=O)NCc1cccc(OC)c1 (configuration not stated)	-13	·	·	-6.4	·	-7	4
COc1ccc(S(=O)(=O)c2nnn(-c3ccccc3Cl)c2N)cc1	-2	2269	-13	4.8	-4	4	3
O=C(Nc1ccccc1)NC1CCCCCCC1	3	·	·	5.9	9	9	11
COc1ccc(O)c(/C=N/NS(=O)(=O)c2ccc(C)cc2)c1	·	4271	-14	·	0	·	·
Cc1cc(C)c(OCCN(C)Cc2ccccc2)c(Br)c1	3	4098	-12	28	-1	-6	-3
CCCCOC(=O)C(C#N)c1nc2ccccc2nc1N1CCOCC1 (configuration not stated)	-3	2903	-8	6.0	-2	·	·
CN(C)c1ccc(/C=N/NC(=O)c2sccc2-n2cccc2)cc1	·	3373	-16	·	10	·	·
O=c1[nH][nH]c(C(F)(F)F)c1C=Nc1cccc(Cl)c1	5	8526	-17	4.3	1	10	6
CN(CC(=O)Nc1ccc(S(N)(=O)=O)cc1)Cc1ccccc1F	6	4466	-10	7.9	-6	10	2
CCCCCSc1cc(O)c(C(CNC)C(C)C)cc1OC (configuration not stated)	3	2525	-8	2.6	8	15	5
C[C@@H](C(=O)OCn1nnc2ccccc2c1=O)N1C(=O)C2CCCCC2C1=O (some centres not stated)	3	4455	-18	3.2	-1	15	5
CCN(CC)C(=O)Nc1cnc2ccccc2c1	-5	2973	-27	-14	3	10	9
Nc1ccc(-c2nc3ccc(N)cc3s2)cc1	-9	5051	25	-4.4	0	-7	10
CCOC(=O)N1CCN(C(=S)NC(=O)c2cccc(OC)c2)CC1	6	4100	1	2.6	·	8	2
COC(=O)c1ccc(-c2ccc(F)cc2)nc1C	10	2397	-78	15	-13	0	6
COc1ccc(C(=O)C(c2ccccc2)N2CCOCC2)cc1 (configuration not stated)	-7	2452	-20	-17	2	3	6
CC(=O)NCCC(=O)N1CCc2c([nH]c3ccccc23)C1c1cccc(C)c1 (configuration not stated)	-9	4502	-29	-7.4	1	-7	1
COCCN(C(=O)C1CCN(C(=O)c2ccccc2C)CC1)c1c(N)n(CC(C)C)c(=O)[nH]c1=O	6	2760	-4	5.6	·	-3	-8
CNc1ccc(Br)cc(C(=O)/C=C/c2ccc(OC)cc2OC)c1=O	98*	9593	-9	-7.3	5	13	4
Cc1ccc(-n2c(O)c(/C=C3/C(c4ccccc4)=Nc4ccccc43)c(=O)[nH]c2=O)cc1	1	2108	-27	4.3	8	5	2

5 neighbouring entries already listed, quoted:
SMILES	ugtP null kill	Bead autofluor	PrP UTR inh	Sa RN4220 lethal	BJeLR lethal	Mtb hypoxia inh	Mtb hypoxia inh growth
Cc1cc(C)cc(NC(=O)CSc2nc3nc(C)cc(C)c3c(=O)[nH]2)c1	7	?	·	2.8	·	7	7
CCOC(=O)c1cn2nc(Oc3cccc(C(F)(F)F)c3)ccc2n1	-2	·	-6	5.2	-2	0	0
CN=c1scc(-c2ccccc2F)n1/N=C/c1ccc(O)c(O)c1O	·	3546	40	·	10	·	·
O=C(O)Cc1c(-c2ccccc2)c2cc(Br)ccc2[nH]c1=O	-1	6345	-19	1.5	1	4	-4
Cc1ccnc(NS(=O)(=O)c2ccc(NC(=O)C34CC5CC(C)(CC(C)(C5)C3)C4)cc2)n1	-4	7210	-23	12	3	-3	7

(next part)
SMILES	ugtP null kill	Bead autofluor	PrP UTR inh	Sa RN4220 lethal	BJeLR lethal	Mtb hypoxia inh	Mtb hypoxia inh growth
Cn1c(=O)c2c(ncn2CC(=O)N/N=C/c2ccco2)n(C)c1=O	·	2117	-24	·	-3	·	·
S=C(NCc1ccccn1)Nc1ccc(Cl)c(Cl)c1	-11	2123	-20	-6.9	-7	·	·
Cc1ccc(NC(=O)C2=C(O)c3ccccc3N(C)S2(=O)=O)cc1	-10	10292	-28	17	2	14	-3
Cc1cc(C)n(-c2nnc3c4ccccc4n(C)c3n2)n1	2	3781	-60	1.7	-2	4	7
CCOc1ccc(NC(=O)CN(C)C(=O)C2CC(=O)N(CCc3ccc(OC)c(OC)c3)C2)cc1OCC (configuration not stated)	8	?	5	3.6	·	0	-6
CC1(C)CC(=O)c2c(O)cc(OCC(=O)NCCc3ccc(S(N)(=O)=O)cc3)cc2O1	-6	5701	-11	-1.7	4	·	·
COc1ccc(NC(=S)N/N=C2\CC(C)(C)Oc3ccc(O)cc32)cc1	·	2570	-3	·	-10	·	·
NS(=O)(=O)c1ccc(CCNC(=O)c2ccc(Cl)c(S(=O)(=O)N3CCCCCC3)c2)cc1	-3	4254	0	-4.5	·	-10	-8
CCCCn1c(=O)n(CC(=O)Nc2c(CC)cccc2CC)c(=O)c2c1nc(CO)n2CCC	0	4820	-24	-0.5	-10	·	·
CN(CC(=O)NCc1ccc(Cl)cc1)S(=O)(=O)c1cccc2nsnc12	-4	9797	-27	-2.8	-15	-8	-11
COc1ccc(C(=O)Nc2ccnn2C2CCN(Cc3ccncc3)CC2)cc1	5	6903	-11	1.2	-2	-3	7
COc1ccccc1-c1ccc(SCC(=O)NC2CCCCC2)nn1	7	4869	-6	1.9	-6	10	2
CCc1ccc(NC(=O)Nc2c(C)n(C)n(-c3ccccc3)c2=O)cc1	7	4569	-20	7.3	-6	10	3
CC(C)C[C@H](NC(=O)c1nc[nH]c1C(=O)N1CCN(c2ccccc2)CC1)C(=O)OC(C)(C)C	·	3778	-20	·	-7	·	·
CC(C)OC(=O)C1C2C=CC3(CN(CC4CCCO4)C(=O)C13)O2 (configuration not stated)	0	3714	-17	-4.6	1	·	·
COc1ccc2[nH]c(C(=O)O)c(NS(=O)(=O)c3ccc(Cl)s3)c2c1	-4	5946	-25	3.5	-7	-4	10
Cc1[nH]c2ccc(F)cc2c(=O)c1SC(F)(F)C(F)C(F)(F)F (configuration not stated)	-9	2974	10	-2.0	-1	10	5
CCC(C)c1ccc(NC(=O)C2CC3CCC2C3)cc1 (configuration not stated)	-12	3147	-66	-14	-4	2	-2
O=c1cc(Nc2ccc3c(c2)OCO3)[nH]c(=O)n1-c1ccc(Br)cc1	-1	5839	-1	3.5	5	5	5
O=C(Nc1ccc(Br)cc1)c1cc(-c2ccc3c(c2)OCO3)on1	4	3212	-45	8.4	4	-4	1
CC(=O)OC(C(=O)NC1CCCCC1)c1ccccc1Cl (configuration not stated)	0	3318	-3	2.1	-1	4	2
S=C(NCC1CCCO1)c1ccc(Br)cc1 (configuration not stated)	4	3777	-19	0.7	3	12	2
CC(C)N1C(=O)C(=O)N(CC(=O)N2CCc3ccccc32)C1=O	-1	2878	-17	-0.9	·	2	-10
C#CCOCCOCCOCCNc1nc(N2CCN(C(=O)C(C)n3cc(CCC(=O)O)nn3)CC2)nc(N2CCN(C(=O)C(C(C)CC)n3cc(CCCCN)nn3)CC2)n1 (configuration not stated)	-1	·	·	1.7	·	11	10
Cc1ccc(S(=O)(=O)N2CCN(C(=O)CCC(=O)Nc3ccc(F)cc3F)CC2)cc1	3	5309	·	2.7	·	7	12
OCC(C#CCN1CCCCC1)NCc1ccccc1 (configuration not stated)	3	5278	-41	0.7	-12	-6	-13
Cc1ccc(N(C)S(=O)(=O)c2ccc3[nH]cc(C(=O)NCCCN4CCOCC4)c(=O)c3c2)cc1C	1	6024	-24	2.4	6	15	7

Bioassay records: PubChem BioAssay, several laboratories
